2A StopGo: FMDV 2A StopGo reporter, luciferase signal. human cells with a luciferase reporter of 2A StopGo recoding; control for the full effect not named in the record. Potency, µM (highest dose often 57.9 µM), for the others: at the highest dose signal change, negative = less light. 410,000 tested, 1.2% active. AID 1159524; active = well fitted falling curve with a large enough effect; inconclusive = small, poorly fitted or top-dose-only effect; inactive = no such curve, though single readings can be large or run the other way; tested in HEK293T cells; also: % is scaled to controls: 0 for no effect and ±100 for the full control effect; nearly all actives have a fitted effect of over 45% in size; luciferase light after 4 h
Cruzain inh Det: inhibitors of Trypanosoma cruzi cruzain with detergent; Potency, µM, for inactives: max response, negative = inhibition, most hits filed as inhibitors; 200,000 tested, 0.43% active; purified cruzain, Z-FR-AMC fluorescence, 0.01% Triton; AID 1478;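 also: plate controls were neutral wells for no effect and buffer without enzyme for full effect; nearly all actives have a fitted effect of over 40% in size; top concentration of the series not given in the record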
Target sequence (P25779 123-467 limits assumed): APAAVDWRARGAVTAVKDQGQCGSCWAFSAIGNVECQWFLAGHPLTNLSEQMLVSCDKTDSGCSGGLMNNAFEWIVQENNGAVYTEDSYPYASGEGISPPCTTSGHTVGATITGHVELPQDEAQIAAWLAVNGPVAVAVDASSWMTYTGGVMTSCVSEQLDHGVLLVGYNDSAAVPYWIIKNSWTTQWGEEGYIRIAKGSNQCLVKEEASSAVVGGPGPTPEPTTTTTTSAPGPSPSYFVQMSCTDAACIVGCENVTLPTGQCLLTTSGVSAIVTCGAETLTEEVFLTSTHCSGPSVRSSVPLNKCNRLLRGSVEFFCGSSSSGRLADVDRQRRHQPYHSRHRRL
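Enzyme 1.5 nM, Z-FR-AMC 2 uM, NaOAc 100 mM pH 5.5, DTT 5 mM, Triton X-100 0.01%; 15 min RT compound preincubation; kinetic ex360/em450, 60 s delta.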
RE007 growth inh: less growth of the S. pombe RE007 Vpr strain | S. pombe RE007 Vpr strain, BacTiter-Glo ATP luminescence, 24 h; control for the full effect not named in the record | Potency, µM (series often up to 92.2 µM), for the others: at the highest dose activity change, negative = less growth | 360,000 tested, 0.21% active | AID 651644; active = well fitted falling curve with a large enough effect; inconclusive = small, poorly fitted or top-dose-only effect; inactive = no such curve, though single readings can be large or run the other way;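 also: % is scaled to controls: 0 for no effect and ±100 for the full control effect; nearly all actives have a fitted effect of over 50% in size; the assay follows cell death caused by Vpr and the record does not say whether a fall means rescue or toxicity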
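Fission yeast strain RE007, carrying one chromosomally integrated HIV-1 vpr copy, was seeded at OD 0.01 in PMG+AL medium with 23 nL pinned compound. After 24 h at 30 °C and 99% humidity, viability was read by BacTiter-Glo luminescence.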
NS1 inh: inhibitors of influenza NS1 protein function; S. cerevisiae slowed by influenza A NS1, growth recovery by OD600; Potency, µM (top dose mostly 46.1 µM), inactives show at the top dose activity, positive = more growth; 270,000 tested, 0.4% active; AID 2326; active means well fitted rising curve with a large enough effect; inconclusive means small, poorly fitted or top-dose-only effect; inactive means no such curve, though single readings can be large or run the other way; also: nearly all actives have a fitted effect of over 50% in size
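In this qHTS, NS1 from influenza A is expressed in budding yeast, where it slows growth. Cells are switched from glucose to 2% galactose medium (pH 6.0, -URA), treated with compound, and growth recovery is read at OD600.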
Cruzain noTriton: cruzain (T. cruzi) inhibition without detergent; 200,000 tested, 2.3% active; purified cruzain, Z-FR-AMC fluorescence, no detergent; P25779; Potency, µM, for inactives: max response, negative = inhibition, actives largely listed as inhibitors;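 also: plate controls were enzyme without inhibitor for no effect and buffer without enzyme for full effect; nearly all actives have a fitted effect of over 40% in size; top concentration of the series not given in the record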
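Detergent-free condition (0.00005% Triton X-100) in acetate buffer pH 5.5 with DTT. 1.5 nM enzyme and compound were pre-mixed 15 min, then 2 uM Z-FR-AMC substrate added; reaction progress from fluorescence change between first and third reads (60 s).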
SARS PLpro yeast: inhibitors of SARS-CoV papain-like protease in yeast; 330,000 tested, 0.19% active; S. cerevisiae expressing SARS-CoV PLpro, growth rescue; control for the full effect not named in the record; Potency, µM (doses to about 32.9 µM), for inactives: top-dose activity, positive = growth rescue; active means well fitted rising curve with a large enough effect; inconclusive means small, poorly fitted or top-dose-only effect; inactive means no such curve, though single readings can be large or run the other way; also: 0% is about no effect; nearly all actives have a fitted effect of over 55% in size; growth read by luminescence after 48 h
LASV entry inh: blocks Lassa virus binding to or entry into cells; Lassa virus pseudotype entry inhibition, cell reporter; control for the full effect not named in the record; Potency, µM (titrated, usually from 37.9 µM), without a hit: at the top dose activity change, negative = inhibition, actives largely listed as inhibitors; 300,000 tested, 1.2% active; active means well fitted inhibition curve with a large enough effect; inconclusive means small, poorly fitted or top-dose-only effect, or effect the other way; inactive means flat fitted curve, though single readings scatter; tested in HEK293 cells; also: % is scaled to controls: 0 for no effect and ±100 for the full control effect; nearly all actives have a fitted effect of over 50% in size; luciferase read-out
Marburg entry inh: blocks Marburg virus binding to or entry into cells | AID 540276 | Marburg virus pseudotyped entry inhibition, cell reporter; control for the full effect not named in the record; about a third of the inactives were read at about 46 µM | Potency, µM (highest dose often 37.8 µM), for the others: at the highest dose activity change, negative = inhibition, most hits filed as inhibitors | 300,000 tested, 1.8% active; active = well fitted inhibition curve with a large enough effect; inconclusive = small, poorly fitted or top-dose-only effect, or effect the other way; inactive = flat fitted curve, though single readings scatter; tested in HEK293 cells; about a fifth of its hits are not listed in these tables; also: % is scaled to controls: 0 for no effect and ±100 for the full control effect; luciferase read-out
Active calls of the source: *; ? = inconclusive; . = no result given; & = joins results of further samples; [ ] = another dose, or the depositor's remark. Unless noted, calls follow the shape of the dose curve; as a rule, active = well fitted curve in the direction sought with a large enough effect; inconclusive = small, poorly fitted or top-dose-only effect, or another doubt; inactive = no such curve, though single readings can be large; an effect the other way counts as inactive or inconclusive. Potency is read from the fitted curve at half-maximal effect.

#	smiles	2A StopGo	Cruzain inh Det	RE007 growth inh	NS1 inh	Cruzain noTriton	SARS PLpro yeast	LASV entry inh	Marburg entry inh
1	CCC(=O)OCOc1ccc(/C=C2/CCC(CN(C)C)C2=O)cc1 (centres undefined)	32µM*	.	8.9µM*	.	.	.	?	?
2	CCC(C)(C)NC(=O)CN(Cc1ccc2c(c1)OCO2)C(=O)CCC(=O)Nc1ccccn1	-27%	7.1%	0%	-9%	-6%	-12%	20%	-5%&-5%
3	COc1cc(CCC(=O)OCC(=O)Nc2ccc(F)cc2F)cc(OC)c1OC	-10%	.	11%	-1%	.	2%	6%	15%
4	C=CCn1c(C)nnc1SCC(=O)Nc1ccccc1C(=O)NC1CC1	6%	.	1%	.	.	-5%	2%	27%
5	CC(=O)c1ccc(N2CCN(C(=O)/C=C/c3ccc4ccccc4n3)CC2)cc1	?	.	-26%	-8%	.	0%	.	.
6	CCCn1c(C(O)c2cccc(OC)c2)nc2ccccc21 (centres undefined)	?	.	0%	10%	.	2%	15%	4%
7	C/C(=N\NC(=O)CCc1ccc(S(=O)(=O)N2CCOCC2)cc1)c1ccccc1Cl	-6%	.	0%	.	.	-2%	-6%	-1%[46.1 µM]
8	Cc1ccc(C(=O)N(CN2CCCC2=O)c2ccccc2)cc1	-19%	.	5%	.	.	0%	?	20%
9	Cc1oc(-c2cc(Cl)cc(Cl)c2)cc1C(=O)NCCc1ccccc1	?	-4.4%	5%	-30%	19%	-9%	7%	?
10	Cc1ccc(CNC(=O)C(C)n2ccc3cc(S(=O)(=O)N4CCCC4)ccc32)cc1 (centres undefined)	2%	-5.3%	.	.	2%	.	-25%[46.1 µM]	.
11	O=C(O)C1CCN(C(=O)COc2ccc3c(c2)oc(=O)c2ccccc23)CC1	-6%	.	-3%	6%	.	5%	.	.
12	COC(=O)c1[nH]c2ccc(Cl)cc2c1NC(=O)CCN1CCOCC1	-7%	2.4%	1%	-7%	-2%	-1%	?	-13%
13	CCOCCCNC(=O)c1ccc2c(c1)N=C(CC)c1cc(Br)ccc1S2	-20%	.	-8%	.	.	-3%	?	?
14	COCCCN1C(=O)c2ccc(C(=O)OCC(=O)NCc3ccccc3OC)cc2C1=O	-16%	.	1%	-7%	.	0%	0%	15%
15	COC(=O)/C(C#N)=C/c1c(Oc2cccc(C)c2)nc2ccccn2c1=O	-29%	.	6%	0%	.	-1%	-13%[46.1 µM]	-6%[46.1 µM]
16	Cc1c2ccccc2c(CSC(=N)N)c2ccccc12	?	0.7%&-7.5%	.	-6%	0%&-3%	.	.	.
17	CCOC(=O)c1c(NC(=O)CSc2nnnn2C)sc(CC)c1C	.	-5.9%	18%	-66%	?	-3%	-2%	-10%
18	CC(=O)c1c(C)[nH]c(C(=O)OCC(=O)Nc2cccc(S(=O)(=O)N3CCCC3)c2)c1C	14µM*	-1.9%	-1%	16%	6%	-6%	?	?
19	CCOC(=O)c1c(-c2ccccc2)csc1NC(=O)C1CCCO1 (centres undefined)	.	-4.9%	-3%	-1%	11%	1%	-21%	-19%
20	COc1ccc(/C=N/NC(=O)C(=O)N2CCCC2)cc1OC	29%	-7.5%	0%	19%	5%	-11%	4%	8%
21	CCNC(=S)N/N=C(\C)c1cccc([N+](=O)[O-])c1	7%	-11%	-4%	-5%	-20%	?	0%[46.1 µM]	?
22	O=C(Nc1cccnc1)c1cc2cc(Br)ccc2oc1=O	18%	.	18%	.	.	1%	-13%	26%[46.1 µM]
23	Cc1nc(N2CCCC2)ncc1C(=O)NCc1cccc(Cl)c1	8%	-1.6%	.	.	7%	.	-5%[46.1 µM]	.
24	COC(=O)C1=Nc2ccccc2/C1=C\c1c(O)n(-c2ccc(OC)cc2)c(=O)[nH]c1=O	-19%	-6.9%	0%	-40%	4%	-44%	-1%	-18%
25	O=C(Nc1ccon1)c1ccccc1Cl	0%	1.6%	-6%	-9%	-5%	-3%	3%	6%
26	COc1ccc(NC(=O)c2cccc(Cn3cc(Br)cn3)c2)cn1	-24%	-6.9%	4%	-41%	-5%	-5%	-13%	-24%
27	COC(=O)[C@H]1C[C@@H]1[C@H](NC(=O)OCc1ccccc1)c1ccccc1	-16%	-2.5%&1.8%	-6%	-19%	-12%&1%	29%	-23%	15%
28	Fc1c(F)c(-n2nnc3ccccc32)c(F)c(F)c1Cl	-9%	.	-23%	3%	.	1%	6%	9%
29	Cc1cc(C)cc(-c2nnc(SCC(=O)c3c(N)n(C4CC4)c(=O)[nH]c3=O)o2)c1	-21%	.	5%	.	.	-1%	10%	6%
30	COc1ccc([N+](=O)[O-])cc1NC(=O)CSc1nc(C)cc(C)n1	-14%	-4.9%	8%	-9%	-7%	4%	-9%	?
31	Cc1nn(CC(=O)Nc2ccc(N3CCOCC3)cc2)c(C)c1[N+](=O)[O-]	-6%	.	-8%	.	.	4%	0%	-8%
32	O=C(NCc1ccc(Cl)cc1)C(=O)NCC1OCCN1C(=O)c1ccc(Cl)cc1 (centres undefined)	-26%	.	9%	.	.	-3%	-27%	-16%[46.1 µM]
33	COc1cc(/C=C/c2ccc3c(Br)cc(Br)c(O)c3n2)ccc1O	?	.	10%	-64%	.	-2%	.	.
34	CCN(CC)c1ncnc2sc(C(=O)N3CCN(c4ccccc4)CC3)c(C)c12	-22%	-2.7%	1%	-59%	5%	-5%	-18%	?
35	Cc1cc(F)ccc1NC(=O)c1cc(S(=O)(=O)N2CCOCC2)cn1C	-6%	.	4%	9%	.	0%	.	.
36	O=C(NCCC1=CCCCC1)c1ccc(F)c(S(=O)(=O)N2CCOCC2)c1	-6%	5.6%	1%	-6%	2%	0%	0%	-8%
37	Cc1ccc(S(=O)(=O)N2CCN(C(=O)C3Cc4ccccc4CN3C(=O)c3ccco3)CC2)cc1 (centres undefined)	-3%	-3.4%	2%	-9%	-3%	7%	9%	?
38	N#Cc1ccc(S(=O)(=O)NCC(=O)OCC(=O)N2CCCC2=O)cc1	-8%	.	-17%	.	.	-5%	23%	-4%
39	CC(Cc1ccccc1)C(=O)NCCO (centres undefined)	6%	1.2%&-1.9%	-4%	-6%	-1%&-3%	5%	0%	2%&2%
40	COc1ccc2ccc(=O)oc2c1CC(O)C(C)(C)O (centres undefined)	-16%	.	-7%	6%	.	1%	.	.
41	CCn1c(SCC(=O)NCC2CCCO2)nnc1-c1ccc(Cl)cc1 (centres undefined)	-1%	.	3%	2%	.	-2%	-12%	-2%[46.1 µM]
42	CCOc1cccc(C(=O)Nc2ccc(NC(=O)c3ccc(Br)cc3)cc2)c1	-6%	0.1%	.	.	4%	.	6%[46.1 µM]	.
43	CN(C)c1ccc(/C=C(\NC(=O)c2ccccc2)C(=O)NCCN2CCOCC2)cc1	7%	.	-25%	-3%	.	-4%	2%[46.1 µM]	3%[46.1 µM]
44	Nc1ccc(C(=O)OCC(=O)NC2CCS(=O)(=O)C2)cc1[N+](=O)[O-] (centres undefined)	-3%	.	-9%	5%	.	1%	.	.
45	CN(C)CCNc1nc2sc3c(c2c(=O)n1CCc1ccccc1)CCCCC3	-23%	.	17%	7%	.	-1%	.	.
46	CCN(CC)c1ccc(/C=N/N2CCN(Cc3ccc(C)cc3C)CC2)c(O)c1	-24%	-6.8%	-8%	-10%	12%	29%	-25%	-11%
47	CC(=O)N(C)c1nnc(-c2ccccn2)s1	44%[activator]	-0.1%	-12%	7%	-4%	9%	?	16%
48	COC(=O)[C@@H]1C[C@H]2CC[C@H](O)C[C@H]2N1Cc1ccc(Cl)cc1	-13%	1.4%	-11%	1%	-4%	1%	.	.
49	NC(=O)c1sc(-c2ccsc2)cc1NS(=O)(=O)c1ccc(C(F)(F)F)cc1	?	.	-15%	2%	.	-2%	?	-13%[14.2 µM]
50	CC(C)(C)NC(=O)CC(c1ccccc1)c1ccccc1O (centres undefined)	-8%	2.0%	2%	-5%	10%	3%	2%	-12%
51	O=C(CCCn1c(=S)[nH]c2cc3c(cc2c1=O)OCO3)N1CCN(c2ccc(F)cc2)CC1	?	-2.1%	4%	-92%	-19%	13%	12%	-10%&-10%
52	CCn1nc(C)cc1C(=O)Sc1cccc(Cl)c1	?	.	-28%	-32%	.	2%	4%	-9%[46.1 µM]
53	CC1CCCCC1NS(=O)(=O)CCNC(=O)c1ccccc1 (centres undefined)	-8%	.	-2%	.	.	-9%	6%	1%
54	Cc1cccc(NC(=O)CSc2ccc(-c3ccco3)nn2)c1	?	-11%	-18%	-3%	-4%	19%	0%	-6%
55	Cn1cc(Br)c(-c2cccc(NC(=O)CCC(=O)O)c2)n1	-11%	.	7%	2%	.	1%	4%	-8%[46.1 µM]
56	CC12CCC(C(=O)N(CC(O)CN3CCCCC3)C1=O)C2(C)C (centres undefined)	15%	8.5%	14%	7%	4%	21%	10%	14%
57	COc1cc(C(=O)O/N=C2\C=CC(=O)C(C)=C2)cc(OC)c1OC	?	?	?	-35%	-17%	-17%	?	?
58	CCc1cccc(CC)c1N(COC)C(=O)CCl	-8%&-7%	3.7%&3.0%	-9%	.	-11%&0%	.	?	?
59	CCc1noc2nc(C)n(CC(=O)O)c(=O)c12	-7%	-1.4%	.	.	-2%	.	15%[46.1 µM]	5%[46.1 µM]
60	CCC1CCCCN1C(=O)CSc1nc(N)c(NC(=O)c2ccc(OC)c(OC)c2)c(=O)[nH]1 (centres undefined)	-16%	-2.0%	10%	-20%	0%	3%	.	4%
61	CC(=O)c1cccc(NC(=O)c2cc(-n3cnnc3)ccc2Cl)c1	-7%	-2.1%	9%	-18%	-6%	.	13%	4%

Assay outcomes (PubChem)
